# Bioassay records from PubChem BioAssay.
# GIV-Gai inh = GIV-Galpha-i interaction inhibition; P08753; Galpha-i3/FITC-GIV peptide fluorescence polarization, 90 min; active compounds read low; scaled: aluminum fluoride 0%, vehicle 100%; 0.42% of 210,000 active; percent of control (FP), % (test concentration not listed);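 active = replicate mean at 85% of control or lower, very high polarization wells dropped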;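 note: lower values mean more displacement of the GIV peptide from Galpha-i3; wells of about 15 µL received 100 nL stock; the first replicate is given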
# Target sequence (P08753 whole entry, looked up): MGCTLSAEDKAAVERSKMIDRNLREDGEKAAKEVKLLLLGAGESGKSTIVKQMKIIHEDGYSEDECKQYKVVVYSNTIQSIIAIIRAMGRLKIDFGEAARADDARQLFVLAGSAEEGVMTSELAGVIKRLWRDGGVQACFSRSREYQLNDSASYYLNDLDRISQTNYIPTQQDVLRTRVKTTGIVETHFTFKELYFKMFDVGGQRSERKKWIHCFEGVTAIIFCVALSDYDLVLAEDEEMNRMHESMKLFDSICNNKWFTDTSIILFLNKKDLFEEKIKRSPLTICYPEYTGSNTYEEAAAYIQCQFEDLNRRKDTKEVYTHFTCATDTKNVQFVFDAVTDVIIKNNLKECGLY
# * hit, by the source's call. The list is partial; count on the stated rates, not on these rows.
GIV-Gai inh	SMILES
98	O=C(C1CCC1)N1CCCc2cc(S(=O)(=O)N3CC=C(c4ccccc4)CC3)ccc21
103	Cc1nnc(-c2c(C)[nH]c(C)c2S(=O)(=O)NC2CCCCCC2)o1
101	COc1cccc(NS(=O)(=O)c2cc(-c3cc(C(F)(F)F)on3)sc2C)c1
105	O=C(CSc1nnc(-c2cc3ccccc3o2)n1Cc1ccccc1)Nc1ccccc1O
108	O=C1CSC(c2cn(-c3ccccc3)nc2-c2ccccc2)N1Cc1ccco1 (configuration not stated)
106	CCSc1nc2ccc(NS(=O)(=O)c3ccc(C)cc3C)cc2s1
102	CN(Cc1ccccc1)C(=O)CN(C)S(=O)(=O)c1cc2c(cc1Cl)NC(=O)CO2
104	COc1ccc(C(N=C2NS(=O)(=O)c3cc([N+](=O)[O-])ccc32)c2ccccc2)cc1 (configuration not stated)
100	O=C(NCCC1=CCCCC1)C1CCCN(c2ncc(-c3ccccc3)cn2)C1 (configuration not stated)
111	O=C(CN1C(=O)c2ccccc2C1=O)Nc1sc2c(c1-c1nc3ccccc3s1)CCCC2
105	CCOc1ccc(NC(=O)N2CC(=O)N(CC(=O)NCc3ccc(Cl)cc3)c3ccccc32)cc1
113	COc1ccc(C(=O)NCC(=O)N2CCN(c3ccccc3)CC2)cc1
101	O=S(=O)(c1cc(-c2noc(C3CC3)n2)cs1)N1CCN(c2ccc(F)cc2)CC1
108	CC1(c2ccccc2)CC(C)(C)N(C(=O)CN2C(=O)CCC2=O)c2ccc(C(c3ccccc3)(c3ccccc3)c3ccccc3)cc21 (configuration not stated)
108	N#Cc1c(/N=C/c2ccc(Cl)cc2Cl)oc(-c2ccccc2)c1-c1ccccc1
110	O=C1C(=O)N(c2ccccn2)C(c2cccnc2)/C1=C(/O)c1ccc(Cl)cc1 (configuration not stated)
124	COc1cccc([C@@H]2[C@@H](C(=O)c3ccccc3)N3c4ccc5ccccc5c4C=C[C@@H]3C2(C#N)C#N)c1
107	Cc1[nH]n(-c2ccccc2)c(=O)c1C(c1ccc(OC(=O)c2ccccc2Br)cc1)c1c(C)[nH]n(-c2ccccc2)c1=O
103	Cc1onc(-c2ccc(Br)cc2)c1C(=O)NCCC(C)C
104	Cc1ccc(C(=O)N2CCN(C(=O)CN3CCCCC3)C2)cc1
106	COc1cccc(C2C=C(Nc3ccccc3)C(=O)N2c2ccccc2)c1 (configuration not stated)
111	CCc1ccc(S(=O)(=O)Nc2ccc3oc4c(c3c2)CCCC4)cc1
103	O=S(=O)(c1cccn2c(SCc3ccccc3Cl)nnc12)N1CCCCC1
104	CC1(C)CC(=O)C2=C(C1)c1c(ccc3ccccc13)NC2c1ccc(-c2cccc([N+](=O)[O-])c2)o1 (configuration not stated)
110	Cc1ccccc1C(=O)Nc1sc2c(c1C(=O)Nc1cccc(Cl)c1)CCCCC2
98	CCOc1ccc(NC(=O)CSc2nnc(CNC(=O)COc3ccccc3)n2-c2ccc([N+](=O)[O-])cc2)cc1
110	COC(=O)C1=C(C(=O)OC)SC(=C2C(=S)C(C)(C)N(C(=O)CN3C(=O)CCC3=O)c3c(OC)cccc32)S1
121	CC1(C)CC(=O)C2=C(C1)N(c1ccc([N+](=O)[O-])cc1)C(N)=C(C#N)C2c1ccc2c(c1)OCO2 (configuration not stated)
106	O=C(c1csc(Nc2ccccc2)n1)N1CCCCC1
103	CC1(C)CC(=O)C2=C(C1)c1c(ccc3ccccc13)NC2c1cccc(OCc2cc3c(cc2Cl)OCO3)c1 (configuration not stated)
105	O=C(Nc1ccccc1Br)N1CCN(c2cc(-c3cccc(F)c3)ncn2)CC1
97	O=C(CCC1CCCC1)N1CCN(c2ncnc3c2nnn3-c2ccccc2)CC1
112	COc1ccc(COC(=O)C2=C(C)NC3=C(C(=O)CC(C)(C)C3)C2c2ccc(Cl)c([N+](=O)[O-])c2)cc1 (configuration not stated)
110	COc1ccc(/C=C/C23NC(=O)CN2c2ccccc2C3(C)C)cc1OC (configuration not stated)
106	O=c1nc(N2CCOCC2)c(Cl)cn1-c1nc(-c2ccccc2)oc1-c1ccccc1
106	CCCCN1CCN(Cc2nc(-c3ccc(N4CCSCC4)nc3)no2)CC1
104	COC(=O)CNC(=O)N1CCCC1c1cc(C)on1 (configuration not stated)
107	Cc1ccccc1C1=CC(Cl)=C(c2cccs2)Oc2ccccc21
98	CCOC(=O)c1cc(C)nc2c1c(=O)n(Cc1nc(-c3ccccc3Cl)oc1C)c(=O)n2C
99	O=C(NC1CC1)c1c2c(nc3ccc(F)cc13)CCC2

# Single entries from the results shown:
# COc1ccc(COC(=O)C2=C(C)NC3=C(C(=O)CC(C)(C)C3)C2c2ccc(Cl)c([N+](=O)[O-])c2)cc1 (configuration not stated) – GIV-Gai inh = 112
# COc1ccc(/C=C/C23NC(=O)CN2c2ccccc2C3(C)C)cc1OC (configuration not stated) – GIV-Gai inh = 110
# O=C(NC1CC1)c1c2c(nc3ccc(F)cc13)CCC2 – GIV-Gai inh = 99
# CCCCN1CCN(Cc2nc(-c3ccc(N4CCSCC4)nc3)no2)CC1 – GIV-Gai inh = 106
# Cc1ccccc1C1=CC(Cl)=C(c2cccs2)Oc2ccccc21 – GIV-Gai inh = 107
# O=c1nc(N2CCOCC2)c(Cl)cn1-c1nc(-c2ccccc2)oc1-c1ccccc1 – GIV-Gai inh = 106
# CCOC(=O)c1cc(C)nc2c1c(=O)n(Cc1nc(-c3ccccc3Cl)oc1C)c(=O)n2C – GIV-Gai inh = 98

# (list continues)
GIV-Gai inh	SMILES
107	Cc1ccc(OCc2nc(-c3ccc(Cl)cc3)no2)c(Br)c1
98	Cc1cc(C2CCCN2Cc2cc(F)ccc2F)on1 (configuration not stated)
102	CCCN1CCN(S(=O)(=O)c2ccc3c(c2)N(Cc2noc(C4CCC4)n2)C(=O)CO3)CC1
110	Cc1ccc(CNC(=O)C2(C)CCCN(C(=O)COc3cccc(C)c3)C2)cc1 (configuration not stated)
107	CCOc1ccc(S(=O)(=O)N2CCN(c3ccccc3OC)CC2)c2cccnc12
108	Cc1ccc(C(C)NC(=O)c2cccc(-c3cc(N4CCCC4)ncn3)c2)cc1 (configuration not stated)
108	CCOc1c(Br)cc(/C=C2\C(=O)NC(=O)N(c3ccc(OC)cc3)C2=O)cc1OC
109	CC(C)c1ccc(C2C3=C(CC(C)(C)CC3=O)NC3=C2C(=O)CC(C)(C)C3)cc1
113	COc1ccc(/C=C/C(=O)N2c3cc(C)ccc3C(C)(c3ccccc3)CC2(C)C)cc1OC (configuration not stated)
111	CCS(=O)(=O)c1c(S(=O)(=O)CC)c2c(C)cccn2c1C(=O)c1ccccc1
108	CCOc1ccc(NC(=O)CSc2nc3ccccc3n2S(=O)(=O)c2ccc(OC)cc2)cc1
106	O=C(c1cc2cc(Br)ccc2o1)N1CCc2c([nH]c3ccccc23)C1c1ccc([N+](=O)[O-])cc1 (configuration not stated)
111	CC1CCN(CC(=O)N2c3ccccc3C(C)(c3ccccc3)CC2(C)C)CC1 (configuration not stated)
101	CCN(CC)C(=O)c1sc2ncnc(N3CCN(c4ccccc4)CC3)c2c1C
102	CCCCN(C)c1ccc2nnc(CCc3nc(-c4ccccc4Cl)no3)n2n1
100	COc1ccc(N2CCN(C(=O)CCCN3C(=O)C4C5C=CC(C5)C4C3=O)CC2)cc1 (configuration not stated)

# Quoted at random: 5 entries already listed, in no set order.
GIV-Gai inh	SMILES
113	COc1ccc(/C=C/C(=O)N2c3cc(C)ccc3C(C)(c3ccccc3)CC2(C)C)cc1OC (configuration not stated)
108	CCOc1ccc(NC(=O)CSc2nc3ccccc3n2S(=O)(=O)c2ccc(OC)cc2)cc1
102	CCCCN(C)c1ccc2nnc(CCc3nc(-c4ccccc4Cl)no3)n2n1
106	O=C(c1cc2cc(Br)ccc2o1)N1CCc2c([nH]c3ccccc23)C1c1ccc([N+](=O)[O-])cc1 (configuration not stated)
111	CCS(=O)(=O)c1c(S(=O)(=O)CC)c2c(C)cccn2c1C(=O)c1ccccc1

# Next section
GIV-Gai inh	SMILES
103	COc1cccc(N2CCN(C(=O)CCc3nnc4ccc(-c5ccc(C)c(C)c5)nn34)CC2)c1
106	CCOc1ccccc1NC(=O)c1c(NC(=O)c2ccccc2)sc2c1CCCCC2
103	O=C1CCCC2=C1C(c1cc(Br)ccc1F)n1ncnc1N2 (configuration not stated)
108	COc1ccc(/C=C2\c3cc([N+](=O)[O-])ccc3-c3c2cc([N+](=O)[O-])cc3[N+](=O)[O-])cc1OC
105	CCOC(=O)C1=C(C)N=c2s/c(=C\c3cc(C)n(-c4ccc([N+](=O)[O-])cc4)c3C)c(=O)n2C1c1ccc(OC)cc1 (configuration not stated)
110	NNc1nc(Nc2ccccc2[N+](=O)[O-])nc(OC(C(F)(F)F)C(F)(F)F)n1
106	O=C1Nc2ccc(Br)cc2C(c2ccccc2Cl)=N/C1=C/c1ccc(Br)cc1
104	COc1ccc(CN2CCCC2c2cc(C(C)C)on2)cc1O (configuration not stated)
126	CCCCC(=O)N1c2ccc(C)cc2C(=C2SC(C(=O)OC)=C(C(=O)OC)S2)C(=S)C1(C)C
105	Cc1ccc(-n2c3nc(=O)[nH]c(=O)c-3cc3ccccc32)cc1Cl
127	CC(C)CCn1c(CCCC(=O)N2CCN(c3ncccn3)CC2)nc2cccnc21
103	Cc1noc(C)c1C1CCCN1Cc1ccncc1 (configuration not stated)
115	O=C(Nc1ccc(Oc2ccccc2)cc1)c1ccc(F)c(S(=O)(=O)N2CCC3(CC2)OCCO3)c1
111	Cc1ccccc1S(=O)(=O)Nc1cccc(C(=O)N2CCC(C(=O)NCCC(C)C)CC2)c1
112	O=C1NC(c2cc3c(cc2Cl)OCO3)Nc2sc3c(c21)CCCC3 (configuration not stated)
116	COc1cccc(C2CC(c3cccs3)=NN2C(=O)CSc2nnc(CNC(=O)Cc3ccccc3)n2C)c1OC (configuration not stated)
107	Cc1cc(C(F)(F)F)c(C#N)c(SCc2ccccc2[N+](=O)[O-])n1
115	CCOC(=O)CSc1nc2c(sc(=S)n2CC2CCCO2)c(=O)n1-c1ccc(F)cc1 (configuration not stated)
107	Cc1nnc(SCC(=O)Nc2ccc3nc(SCC(=O)NC4CCCCC4)sc3c2)s1
113	CCOC(=O)C1=C(C)NC2=C(C(=O)c3ccccc32)C1c1ccc([N+](=O)[O-])cc1 (configuration not stated)
103	CCCSc1c(CC)cnc2c1c(=O)n(C)c(=O)n2C
103	CCOC(=O)c1ccc(NC(=O)N2CCN(Cc3nc(-c4ccc(OCC)cc4)oc3C)CC2)cc1
91	CCC(=O)Nc1c(C)noc1/C=C/c1ccc(S(=O)(=O)N2CCC(C)CC2)s1
102	Cc1ccc(C(=O)COC(=O)c2cccc(N3C(=O)C4CC=CC(C)C4C3=O)c2)cc1[N+](=O)[O-] (configuration not stated)

# Entries shown so far with a CF3 group:
GIV-Gai inh	SMILES
101	COc1cccc(NS(=O)(=O)c2cc(-c3cc(C(F)(F)F)on3)sc2C)c1
110	NNc1nc(Nc2ccccc2[N+](=O)[O-])nc(OC(C(F)(F)F)C(F)(F)F)n1
107	Cc1cc(C(F)(F)F)c(C#N)c(SCc2ccccc2[N+](=O)[O-])n1

# The listing continues.
GIV-Gai inh	SMILES
112	COc1ccccc1N1CCN(C(=O)CSc2nc3ccccc3c(=O)n2NC(=O)Cc2ccccc2)CC1
110	Cc1ccc(S(=O)(=O)N(CC(O)CN2CCCCC2)c2cccc(C)c2)cc1 (configuration not stated)
102	Cc1ccc(Cl)cc1NC(=O)Nc1ccc(OCc2cc(=O)n3ccccc3n2)cc1
106	Cc1nc(CN2C(=O)COc3ccc(S(=O)(=O)NC(C)(C)C)cc32)no1
103	CC(=O)N1CC(C)(C)c2cc(S(=O)(=O)NC3CC3)ccc21
107	C1CCC(Nc2nnnc3c2sc2nc(N4CCOCC4)c4c(c23)CCCC4)CC1
97	CC(C)c1cc(C2CCCN2Cc2ccccc2)no1 (configuration not stated)
102	COc1cn(CC(=O)NC2CCCCC2)c(CN2CCCCC2)cc1=O
105	COc1ccc(C(=O)Oc2ccc3c(=O)c(Oc4ccccc4Br)coc3c2)cc1OC
109	O=S(=O)(c1ccc(-c2nnc(C3CC3)o2)o1)N1CCCCC1
106	CC1C(c2ccccc2)N(C)C(c2ccccc2)C(C)C1(O)Cc1ccccc1 (configuration not stated)
66*	Cc1csc(-c2cc(S(=O)(=O)Nc3ccc(C)c(F)c3)c(C)s2)n1
100	CCOC(=O)N1CCC2(CC1)N=C(c1cc(Cl)ccc1O)CC(c1ccc(C)cc1)N2 (configuration not stated)
109	COc1cc2c(cc1OC)C(Nc1cc(C)ccc1C)=NC(C)(C)C2
98	CN(CCCNC(=O)CN(c1ccccc1)S(=O)(=O)N(C)C)C1CCCCC1
106	O=C(Nc1ccc(-c2noc(-c3ccc([N+](=O)[O-])cc3Cl)n2)cc1)c1ccc(Br)o1
98	Nc1ncnc2c1[nH]c(=S)n2CCOc1ccccc1
107	COc1cccc(-c2nc3sc4c(c3c(=O)n2CC(=O)Nc2ccc(C)c(F)c2)CCCC4)c1
109	COc1ccc(OCC(CN(C)C2=NS(=O)(=O)c3ccccc32)OC(=O)c2ccc(OC)cc2)cc1 (configuration not stated)
106	Cc1ccccc1-n1[nH]c(C)c(C=Nc2ccc(-c3ccc(N)cc3)cc2)c1=O
107	COc1ccc(-c2nc(-c3cccc(OC)c3OC)[nH]c2-c2ccc(OC)cc2)cc1
102	O=S(=O)(c1ccc2c(c1)OCCO2)N1CCn2cccc2C1c1ccc(F)c(F)c1 (configuration not stated)
109	CCCCN(CCCC)Cc1c(C(=O)OC(C)C)nnn1-c1nonc1N
103	CC(=O)N1CCOc2cc(S(=O)(=O)N3CCC[C@@H]3C(=O)NCCc3csc(C)n3)c(C)cc21
105	Cc1ccc(C)c(N(C)S(=O)(=O)c2ccc3[nH]cc(C(=O)N4CCC5(CC4)OCCO5)c(=O)c3c2)c1
104	CCOC(=O)C1=C(C)NC2=C(C(=O)C(C(=O)OCC)C(c3cccc(OC)c3)C2)C1c1cccc(OC)c1 (configuration not stated)
121	COc1ccc(C2(O)C[N+]3=C(CCCCC3)N2c2ccc(Br)cc2)cc1 (configuration not stated)
98	CCOc1ccc(-c2noc(Cc3nc(-c4ccc(C)cc4)cs3)n2)cc1
95	CCc1ccc(NC(=O)N2CCN(Cc3cc(=O)n4nc(-c5ccccc5)sc4n3)CC2)cc1
106	O=c1n(CCOc2ccccc2)nc2c(S(=O)(=O)N3CCCCCC3)cccn12
109	CCOC(=O)c1sc2nc(SCC#N)n(Cc3ccccc3OC)c(=O)c2c1C
